# eIF4H FP inh – inhibitors of RNA binding by human eIF4H | 290,000 compounds, 0.94% hits | Q15056 | inhibition, % at 35 µM | AID 2012 | eIF4H fluorescence polarization binding assay;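 active = 50% or more with normal probe brightness, or confirmed in later tests; inconclusive = above 50% with abnormal brightness, or retests that disagree; inactive = below 50% or failed in later tests; about a fifth of its hits are not listed in these tables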;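 also: calls also rest on retests at 20 µM and on dose response follow-up; 0% = protein and probe with vehicle and 100% = probe without protein; strong numbers were not always called active; many hits fall short of the cut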
# Rce1 inh – blocks yeast Ras-converting enzyme; Q03530; yeast membranes, quenched prenylated peptide cleavage fluorescence; calls only; 290,000 compounds, 0.27% hits; AID 2563;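 active = fall in fluorescence gain of 50% or more versus controls, with final raw signal at or below 3038400; inconclusive = same 50% fall but final raw signal above 3038400; inactive = fall in fluorescence gain under 50%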;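 also: plate controls were neutral control wells for no effect and wells lacking membranes for full effect; tested at 10 µM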
# Target sequence (Q03530 whole entry, looked up): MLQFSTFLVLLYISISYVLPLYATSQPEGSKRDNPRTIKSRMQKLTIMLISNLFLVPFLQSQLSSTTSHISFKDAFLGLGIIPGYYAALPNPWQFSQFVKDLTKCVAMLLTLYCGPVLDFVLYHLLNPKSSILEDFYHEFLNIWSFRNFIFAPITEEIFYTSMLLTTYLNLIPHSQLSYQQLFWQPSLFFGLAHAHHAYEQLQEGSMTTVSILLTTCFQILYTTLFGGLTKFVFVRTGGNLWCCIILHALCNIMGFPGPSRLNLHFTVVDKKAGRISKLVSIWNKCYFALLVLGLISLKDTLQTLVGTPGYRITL
# Env fusion inh – blocks HIV Env-driven cell-cell fusion | AID 651610 | inhibition, % at 12.3 µM | HeLa-JRFL Env/CEM21 cell fusion, luciferase | 360,000 compounds, 1.1% hits;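 active = mean replicate inhibition score of at least 50 and every replicate individually at or above 50; inconclusive = only one of the two criteria met; inactive = mean below 50 and not all replicates reaching 50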;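 also: 0% = plate neutral controls and 100% = maraviroc near 300 nM; one replicate is shown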
# PABP polyA inh – PABP-poly(A) binding inhibition. PABP-poly(A) RNA binding, fluorescence polarization. 290,000 compounds, 1% hits. P11940. inhibition, % at 35 µM;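 active = 50% or more with normal probe brightness, or confirmed in later tests; inconclusive = above 50% with abnormal brightness, or retests that disagree; inactive = below 50% or failed in later tests; about a fifth of its hits are not listed in these tables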;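 also: calls also rest on retests at 20 µM and on dose response follow-up; controls were probe without protein and protein plus probe with vehicle; some compounds called inactive have numbers as strong as hits; many hits fall short of the cut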
# CSC inhib – cancer stem cell inhibition | cancer stem cell-like cells viability, luminescence | inhibition, % at 7.5 µM | 300,000 compounds, 1.1% hits;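 active = mean at 75% or more and at least half the replicates too; inconclusive = mean and replicates disagree; tested in HMLE shEcad cells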;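 also: 0% = median of negative and 100% = median of positive control wells; the first replicate is given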
# MT1-MMP act inh – inhibitors of human MT1-MMP activation; P50281; HT1080 RFP-PRO-GFP cells, GFP/RFP ratio fluorescence, overnight; percent of plate control window, DMSO zero; GFP/RFP ratio change, % at 20 µM; 360,000 compounds, 0.061% hits;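 active = GFP/RFP ratio change of at least 30% with cell ATP level not reduced by more than half and red fluorescence within 50% of control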; also: strong numbers were not always called active
#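 Test system: HT1080 RFP-PRO-GFP cells; Benchmarks: DMSO and RFP-L50D-GFP cell wells; Timing: cells overnight before dosing, compound overnight, 37 °C, 5% CO2; Compound: one 20 µM compound dose with 1% DMSO; Read-out: GFP/RFP fluorescence ratio.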
# UUG fidelity – modulators of start codon recognition fidelity in yeast. S. cerevisiae UUG-firefly luciferase reporter, luminescence/redox ratio. activity score, % at 18.7 µM. 350,000 compounds, 0.13% hits. AID 602363;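 active = replicate mean at a twofold rise or more, about +100% in these data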;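 also: firefly luciferase made from a UUG start codon reports start codon fidelity; reporter light over untreated wells divided by growth signal over untreated wells; some hits fall short of that in this replicate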
# MT1-MMP act inh RFP – second read-out of MT1-MMP act inh, no call of its own (marks repeat the call); RFP signal change, %; measured here: RFP expression control read;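 0 = vehicle wells; hits needed this value within 50% of zero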
# The depositor's hits bear a star; i = inactive; ? = inconclusive; / = not tested or not shown; + = active, no number.
SMILES,eIF4H FP inh,Rce1 inh,Env fusion inh,PABP polyA inh,CSC inhib,MT1-MMP act inh,MT1-MMP act inh RFP,UUG fidelity
C(=Nn1cnnc1)c1ccc2c(c1)CCC2,/,/,4,/,/,2,2,0
COc1cccc(NC(=O)CN(C)C(=O)CSC(=S)N2CCCC2)c1,/,i,-18,/,-7,3,3,-19
O=S(=O)(NCCc1ccncc1)c1cc(Br)ccc1F,-12,i,7,-4,0,5,0,-12
CCOc1ccc(Nc2c3ccccc3nc3ccccc23)cc1,-2,i,0,-8,56,17,-14,-22
Cc1cc(C(C#N)c2ccccc2)n2ncnc2n1 (stereo unspecified),0,/,-49,7,-10,7,2,-23
Cc1ccnc(NC(=O)c2ccc3c(c2)C(=O)N(CC2CCCO2)C3=O)c1 (stereo unspecified),0,/,-11,-3,-3,-2,0,/
CCN(CC)S(=O)(=O)c1ccc(-c2nnc(SCC(=O)N3c4ccccc4CC3C)n2CC)cc1 (stereo unspecified),11,i,16,0,-8,-1,-7,11
Cc1ccc(NC2=C/C(=N/S(=O)(=O)c3cccs3)c3ccccc3C2=O)cc1C,8,i,7,3,20,7,3,-1
Cc1ccc(C)c(Sc2ccc(S(=O)(=O)Nc3ccc(C(=O)O)cc3)cc2)c1,/,/,/,/,9,1,-1,-12
Cc1cc(C)c2cc(CN(CCO)C(=O)Nc3ccc(F)cc3)c(=O)[nH]c2c1,-7,i,/,39,-7,7,1,-14
COC(=O)c1cc[n+](CC(=O)c2ccccc2)cc1,-13,i,/,22,-5,4,7,-4
CN1CCN(/N=C/c2nc(-c3ccccc3Cl)n3ccccc23)CC1,-7,i,1,2,-15,0,6,/
COc1ccccc1C1=NOC(COC(=O)c2ccc(Br)cc2)C1 (stereo unspecified),-1,i,-29,-5,8,-1,0,-14
COC(=O)c1ccc(COc2cc([N+](=O)[O-])cc3cccnc23)cc1,12,i,-9,-2,-12,/,/,/
Cc1ccc(CNc2ccc3c(c2)OCO3)c(C)c1,?,i,/,?,6,/,/,/
O=C(Nc1ccccc1)N(CCN1CCOCC1)Cc1ccccc1F,2,i,/,2,/,4,3,-19
Cc1nn(-c2ccccc2)c(C)c1C(=O)OCC(=O)N(C)c1ccccc1,/,/,15,/,/,-2,1,-14
O=C(c1ccccc1S(=O)(=O)NCC(O)COc1ccc([N+](=O)[O-])cc1)N1CCCCC1 (stereo unspecified),6,i,/,-3,-6,2,-2,16
CC(C)CC(=O)NCCCCc1ccccc1,-5,i,16,-12,/,1,-2,/
CCCn1nnnc1NCc1ccc(OC)cc1OC,-4,i,-10,2,6,-1,0,-4
CCS(=O)(=O)N1CCCC(C(=O)NCC2CCCO2)C1 (stereo unspecified),-10,i,/,0,-1,2,2,-10
CCCOP(=O)(c1ccc(N(C)C)cc1)C(O)c1cc(OC)ccc1OC (stereo unspecified),11,i,15,1,-8,2,-1,/
COc1cccc(/C=N/NC(=O)c2nnn(-c3nonc3N)c2C(C)C)c1OCc1ccc(F)cc1,-22,+,/,7,-9,1,-7,-15
COc1cccc(NC(=O)CN(C)CC(=O)Nc2ccc(Br)cc2)c1,-6,i,5,-14,-8,-2,-1,/
O=C(O)CCCCOn1ccnc1,-2,i,-8,3,-16,0,3,-5

# Continued.
SMILES,eIF4H FP inh,Rce1 inh,Env fusion inh,PABP polyA inh,CSC inhib,MT1-MMP act inh,MT1-MMP act inh RFP,UUG fidelity
O=[N+]([O-])c1ccc(N2CCSCC2)cc1,-5,i,-14,0,-14,6,0,/
COC(=O)Cn1c(=O)c(=O)n(CC(=O)OC)c2ccccc21,-15,i,-5,2,-3,1,-3,-6
Cc1cccc(-c2nc3cc(NC(=O)C4CCCO4)ccc3o2)c1 (stereo unspecified),0,i,-125,-7,20,5,-9,/
O=C(CCNc1n[nH]c(=O)[nH]c1=O)N/N=C/c1ccc(C(F)(F)F)cc1,5,i,9,10,0,4,6,/
O=S(=O)(c1ccc(Cl)nc1)N1CCc2ccccc21,-5,i,-49,-4,-6,-2,-1,-1
O=C(Nc1ccccc1N1CCCC1)C1CCN(S(=O)(=O)c2ccc(F)cc2)CC1,/,i,-7,/,-6,1,0,-2
Cc1ccc(N(CC(=O)NCc2ccc(F)cc2)C(=O)c2ccco2)cc1C,0,i,4,4,3,3,-4,0
Cn1nc(C(=O)Nc2ccc(S(=O)(=O)N3CCCC3)cc2)ccc1=O,1,i,/,-8,-5,4,-2,11
COc1cc(NC(=O)CCc2c(C)nn(-c3ccc(N4CCOCC4)nn3)c2C)cc(OC)c1OC,-3,i,-8,4,-3,9,2,-3
COc1ccc(CNC(=O)COC(=O)c2sccc2C)cc1OC,/,/,-4,/,0,2,-3,-10
Cc1cc(C(=O)COC(=O)c2ccc(Br)o2)c(C)n1Cc1ccco1,5,i,-24,-13,3,/,/,/
CN(C)c1cc(-c2ccc(C#N)cc2)oc(=O)c1Cl,1,i,-9,10,-7,4,-1,-9
Cn1c(/N=C/c2cccs2)nc2ccccc21,6,i,/,7,0,1,3,-10
COc1ccc(CN2CCN(Cc3c[nH]c4ccccc34)CC2CCO)c(F)c1 (stereo unspecified),-6,i,-14,0,7,-2,0,1
COc1cccc(CN=C2Nc3ccccc3CS2)c1,-9,i,-59,-12,7,-2,0,/
COc1cccc(N(CC(=O)N2CCc3ccccc3C2)S(C)(=O)=O)c1,-10,i,31,-11,-7,-3,2,-23
CN(C)S(=O)(=O)c1ccc(N=Cc2c(C(F)(F)F)[nH][nH]c2=O)cc1,-1,i,-13,23,-6,1,10,-9
Cc1cc(/C=N/n2c(COc3ccccc3)nc3ccccc3c2=O)c(O)c([N+](=O)[O-])c1,44,i,-6,3,?,-7,-8,/
O=C(O)c1c2c(nc3ccccc13)/C(=C/c1cccc([N+](=O)[O-])c1)CCC2,2,i,-8,15,7,/,/,-13
CCC(C)Sc1ccc([C@@H]2[C@H]3C(=O)N(CC)C(=O)[C@H]3[C@]3(C(=O)OC)CCCN23)cc1OC (stereo partly specified),/,/,-2,/,23,-4,1,-15
C[C@H](NC(=O)[C@@H]1Cc2ccccc2CN1)C(=O)NC1CCCC1,1,i,-25,10,-2,0,2,-12
COC(=O)c1ccc(/C=N/NC(=S)NCCN2CCOCC2)cc1,-7,i,-1,-4,-8,2,3,/
Cc1ccc(NC(=O)c2cc(S(=O)(=O)N3CCCCC3)ccc2N2CCOCC2)c(C)c1,/,/,17,/,/,2,6,-12
CN(C)CCNC(=O)CNC(=S)N(Cc1ccccc1)Cc1ccccc1F,0,i,-4,11,-8,2,9,/
O=C(COc1ccccc1[N+](=O)[O-])Nc1cccc(S(=O)(=O)NC2=NCCCCC2)c1,/,i,9,/,-4,-7,-3,/

# 5 compounds out of the list, arranged by SMILES length, rising:
SMILES,eIF4H FP inh,Rce1 inh,Env fusion inh,PABP polyA inh,CSC inhib,MT1-MMP act inh,MT1-MMP act inh RFP,UUG fidelity
O=C(Nc1ccccc1N1CCCC1)C1CCN(S(=O)(=O)c2ccc(F)cc2)CC1,/,i,-7,/,-6,1,0,-2
O=C(CCNc1n[nH]c(=O)[nH]c1=O)N/N=C/c1ccc(C(F)(F)F)cc1,5,i,9,10,0,4,6,/
Cc1ccc(NC(=O)c2cc(S(=O)(=O)N3CCCCC3)ccc2N2CCOCC2)c(C)c1,/,/,17,/,/,2,6,-12
O=C(O)c1c2c(nc3ccccc13)/C(=C/c1cccc([N+](=O)[O-])c1)CCC2,2,i,-8,15,7,/,/,-13
CCC(C)Sc1ccc([C@@H]2[C@H]3C(=O)N(CC)C(=O)[C@H]3[C@]3(C(=O)OC)CCCN23)cc1OC (stereo partly specified),/,/,-2,/,23,-4,1,-15

# Later entries.
SMILES,eIF4H FP inh,Rce1 inh,Env fusion inh,PABP polyA inh,CSC inhib,MT1-MMP act inh,MT1-MMP act inh RFP,UUG fidelity
CN(C)S(=O)(=O)c1cc(C(=O)OCCn2cnc3c2c(=O)n(C)c(=O)n3C)ccc1Cl,3,i,2,1,2,0,2,/
S=C(NNC(=S)NC1CC2CCC1C2)NC1CC2C=CC1C2 (stereo unspecified),18,i,36,-4,-14,1,-3,-34
NC(=O)c1ncn([C@@H]2O[C@H](CNCc3cccc4c3sc3ccccc34)[C@@H](O)[C@H]2O)n1,/,/,-36,/,/,-2,-1,-8
O=C1CCCCN1CCCC(=O)N1CCCC(Nc2ccc(F)c(F)c2)C1 (stereo unspecified),10,i,15,-2,6,2,3,-15
O=C(O)c1ccc(C=C(c2nc3ccccc3s2)c2nc3ccccc3s2)cc1,4,i,12,-8,82*,-2,6,/
CCOC(=O)c1cc(S(=O)(=O)Nc2ccc(OC)cc2OC)cn1C,-19,i,7,1,24,7,3,-13
CCC1(c2ccc(F)cc2)NC(=O)N(CC(=O)N2CCc3ccccc32)C1=O (stereo unspecified),/,/,-5,/,-10,1,-3,16
CCN(C(=O)COC(=O)c1ccccc1O)c1cccc2ccccc12,/,/,2,/,-18,0,-4,-2
CC(C)NS(=O)(=O)c1cc(F)ccc1CN1C(=O)c2cccnc2C1=O,-10,i,-8,-3,-10,0,1,-14
CC1CCCCN1C(=S)NCc1ccccc1 (stereo unspecified),-3,i,/,0,-12,16,12,/
O=C(O)c1ccc(NS(=O)(=O)c2ccc(N3CCCC3)c([N+](=O)[O-])c2)cc1,3,i,7,1,-2,-3,0,7
CC1C=CCC2C(=O)N(c3cccc(C(=O)Nc4ccc(Br)cc4)c3)C(=O)C12 (stereo unspecified),-2,i,-3,-1,11,-3,-14,9
Clc1ccc(OCCn2cnc3ccccc32)cc1,4,i,/,4,-12,2,-6,-28
CN(Cc1cccs1)C(=O)c1ccc(S(=O)(=O)N2CCCCC2)cc1,-10,i,-84,4,5,-1,-4,0
CN(Cc1ccc(C#CCCO)cc1)CC1CCCN(CCc2ccc(Cl)cc2)C1 (stereo unspecified),-3,i,-8,0,-9,2,-3,-8
CC(C)N1C(=O)CCC1C(=O)NCc1ccco1 (stereo unspecified),-11,i,2,?,-3,0,4,/
CC(=O)c1ccc(S(=O)(=O)N2CCN(C(=O)c3ccccc3Cc3ccccc3)CC2)cc1,/,i,/,/,10,-2,-5,-27
CCOc1ccccc1-n1c(SCC(=O)N2CCOCC2)nnc1-c1ccccn1,6,i,-36,-5,-9,3,1,-3
COc1cc([N+](=O)[O-])ccc1N1C(=O)CC(Sc2nccc(C)n2)C1=O (stereo unspecified),12,i,-6,5,-7,-1,6,0
COc1ccccc1C(=O)Nc1nnc(-c2ccc(F)cc2)s1,3,i,-14,-5,-3,-5,-5,-22
CCOc1cccc(C2c3c(oc4ccccc4c3=O)C(=O)N2c2ccccn2)c1 (stereo unspecified),-2,i,-15,2,-24,/,/,/
O=C1NC2NC(=O)N(C(Cc3ccccc3)C(=O)O)C2N1 (stereo unspecified),2,i,26,8,0,5,1,-15
Cc1ccc(OCC(=O)Nc2cc(C(C)(C)C)on2)cc1C,3,i,16,4,13,-1,0,-9
CCOC(=O)C(CC)Sc1nc2c(cnn2-c2ccccc2)c(=O)[nH]1 (stereo unspecified),1,i,5,1,-4,0,-4,-9
COc1cc(OC)cc(-n2c3nc4ccccc4nc3c3c(=O)n(CC4CCCO4)cnc32)c1 (stereo unspecified),-2,i,-41,-2,-4,/,/,/
CCOc1cc(S(=O)(=O)NC2CCCCCC2)ccc1F,-4,i,/,4,/,3,-9,-4
Clc1cccc(CNc2nnnn2-c2ccccc2)c1,-6,i,/,-9,1,-3,-17,/
Cc1cccc(NC(=O)c2ccc3c(Cl)c4c(nc3c2)CCCC4)n1,1,i,-92,-9,17,-3,-6,/
CC(=O)Nc1ccc(C=NNC(=O)c2ccc(NS(=O)(=O)c3cccs3)cc2)cc1,/,/,11,/,-7,2,5,-13
CCOC(=O)Nc1ccc(NC(=O)OCC)cc1,5,i,/,10,-6,-2,-2,-12

# Screens: PubChem, several laboratories
